Polio RdRp inh: poliovirus RNA polymerase inhibition; 0.66% of 150,000 active; % elongation, % (compound at 16.7 µg/mL); poliovirus polymerase elongation, fluorescence polarization; active compounds read low; in the data active means % elongation below about 90%; further: some results filed as inactive read as strong as hits
Target sequence (P03300 1749-2209 limits assumed): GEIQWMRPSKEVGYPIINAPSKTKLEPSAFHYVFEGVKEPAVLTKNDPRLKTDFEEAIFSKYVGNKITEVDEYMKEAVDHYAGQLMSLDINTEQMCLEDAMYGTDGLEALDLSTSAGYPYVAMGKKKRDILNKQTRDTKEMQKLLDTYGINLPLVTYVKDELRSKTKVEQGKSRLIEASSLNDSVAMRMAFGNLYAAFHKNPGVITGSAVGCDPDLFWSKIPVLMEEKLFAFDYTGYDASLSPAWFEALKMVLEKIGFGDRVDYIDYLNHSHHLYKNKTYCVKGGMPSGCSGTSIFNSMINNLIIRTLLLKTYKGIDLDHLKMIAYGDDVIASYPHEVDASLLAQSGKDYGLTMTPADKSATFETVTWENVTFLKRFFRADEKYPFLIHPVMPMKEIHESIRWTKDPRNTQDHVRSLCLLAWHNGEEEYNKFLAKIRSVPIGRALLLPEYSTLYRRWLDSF
Polio RdRp inh intensity: second read-out of Polio RdRp inh, no call of its own (marks repeat the call); % elongation; measured here: total intensity read-out; formula for this scale not given here;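 total fluorescence in place of polarization; lower means less elongation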
The depositor's hits bear a star. Not all compounds are listed; count on the stated rates, not on these rows.

Start of the listing, in advance (2 entries):
Every second line gives: Polio RdRp inh	Polio RdRp inh intensity
- CCCCOc1ccc(Cn2c(=O)oc3ccc(C)cc32)cc1OC
    102	103
- COc1ccc(C(=O)c2cn(Cc3cccc(C)c3)c3cc4c(cc3c2=O)OCO4)cc1
    109	112

This part in full, from the first entry:
Every second line gives: Polio RdRp inh	Polio RdRp inh intensity
- CCCCOc1ccc(Cn2c(=O)oc3ccc(C)cc32)cc1OC
    102	103
- COc1ccc(C(=O)c2cn(Cc3cccc(C)c3)c3cc4c(cc3c2=O)OCO4)cc1
    109	112
- CC(=O)c1ccc(NC(=O)C2CCC(CNS(=O)(=O)c3cccs3)CC2)cc1 (stereo not given)
    111	111
- Cc1ccc(CNC(=O)Cc2c(C)c3cc4c(C)coc4cc3oc2=O)cc1
    113	115
- Cc1ccccc1NC(=O)N1CCc2c(sc3c2CCCC3)C1c1ccccc1 (stereo not given)
    101	105
- COc1ccc(OCC(=O)Nc2nnc(S(=O)(=O)N3CCCCCC3)s2)cc1
    105	105
- O=C1c2oc3ccccc3c(=O)c2C(c2ccc(O)cc2)N1Cc1ccc2c(c1)OCO2 (stereo not given)
    106	115
- CCOC(=O)N1CCN(C(=O)c2ccc3c(c2)N(Cc2cc(C)ccc2C)C(=O)c2ccccc2S3=O)CC1 (stereo not given)
    104	106
- CC(=O)Nc1ccc(NC(=O)c2ccc(COc3ccc(Cl)cc3Cl)o2)cc1
    105	109
- COc1ccccc1NC(=O)C1CCN(c2cnccn2)CC1
    99	101
- CCOc1ccccc1NC(=O)C1CCCN(c2ncnc3onc(-c4ccc(F)cc4)c23)C1 (stereo not given)
    106	102
- Cc1ccc(N2CC(c3nnc(Cc4ccccc4Cl)o3)CC2=O)cc1 (stereo not given)
    101	100
- CCCN1Cc2cccc(C(=O)Nc3ccccc3F)c2C1=O
    103	105
- CCOc1ccc(-c2cc(C(=O)N3CCN(c4cc(Cl)ccc4C)CC3)c3ccccc3n2)cc1
    109	110
- COc1ccc(CNC(=O)C(CC(C)C)NS(=O)(=O)c2ccc3c(c2)CCN3C(C)=O)cc1 (stereo not given)
    106	110
- O=C(Nc1cccc(C(=O)N2CCN(c3ccc(F)cc3)CC2)c1)c1nsc2ccccc12
    111	111
- CCOC(=O)c1cc(NC(=O)c2ccc(C)cc2)c(=O)n2c1oc1ccc(Cl)cc12
    108	110
- COc1ccc(-c2cn3c(n2)sc2cc(C(=O)Nc4cccc(OC)c4)ccc23)cc1
    107	106
- O=C(COc1ccccc1-c1nc(-c2ccccc2)no1)Nc1cccc([N+](=O)[O-])c1
    111	115
- CCOC(=O)c1cccc(NC(=O)CCn2c(=O)oc3ccccc32)c1
    108	111
- Cc1ccc(N2CC(NC(=O)c3ccc(Br)o3)CC2=O)cc1C (stereo not given)
    98	104
- Cc1cccc(C(=O)N2CCc3cc(CNC(=O)CSc4ccccc4)ccc32)c1
    97	101
- CC(C)(C)c1ccc(C(=O)NCC(=O)OCc2cc(=O)n3nc(C4CC4)sc3n2)cc1
    106	109
- COc1ccc(-c2nc3cc(NC(=O)c4cc5ccccc5o4)ccc3o2)cc1
    106	114
- CCc1ccccc1NC(=O)CN(C)S(=O)(=O)c1cccc2nsnc12
    105	110
- O=S(=O)(NCCc1csc2nc(-c3ccccc3)nn12)c1cccs1
    112	110
- CCN1Cc2cccc(C(=O)Nc3ccc(F)cc3)c2C1=O
    102	100
- CCn1c(=O)c(=O)n(CC)c2cc(N3CCCCC3)c(NC(=O)c3cccc(OC)c3)cc21
    104	108
- COc1ccc(Cl)cc1NC(=O)c1sc2nc(-c3ccc(OC)c(OC)c3)ccc2c1N
    104	99
- COc1ccc(-n2c(SCC(N)=O)nc3c(oc4ccccc43)c2=O)cc1
    107	111
- Cc1nnc(N2CCC(C(=O)NC3CCC(C)CC3)CC2)c2nn(-c3ccc(Cl)cc3)c(C)c12 (stereo not given)
    105	105
- CCOCc1cc(CN2CCN(c3cccc(Cl)c3)CC2)c(O)c2ncccc12
    120	132
- CC(=O)c1ccc(NC(=O)COc2ccccc2-c2nc(C)no2)cc1
    106	100
- COc1cccc(OC)c1C(=O)Nc1ccc2c(c1)CCCN2S(=O)(=O)c1ccc(C)cc1
    103	108
- COc1cc(OC)c(NC(=O)C2CCN(S(=O)(=O)c3c(C)noc3/C=C/c3c(C)cc(C)cc3C)CC2)cc1Cl
    109	113
- CC(C)COc1ccc(C(=O)N2CCCCC2CCN2CCOCC2)cc1 (stereo not given)
    108	102
- COc1cc2c(cc1NC(=O)COc1cc(C)cc(C)c1)oc1ccccc12
    107	107
- Cc1ccc(Cl)cc1N1CCN(C(=O)c2ccc3c(Cl)c4c(nc3c2)CCCC4)CC1
    103	104
- COc1ccc2c(c1)cc(CNc1ccc(OC)c(OC)c1)c(=O)n2CC(=O)Nc1ccc(F)cc1
    107	105
- COc1ccc(NC(=O)c2cc(=O)c3ccc(C)c(C)c3o2)cc1Cl
    112	109

In the list so far, five have fluorine:
Every second line gives: Polio RdRp inh	Polio RdRp inh intensity
- CCOc1ccccc1NC(=O)C1CCCN(c2ncnc3onc(-c4ccc(F)cc4)c23)C1 (stereo not given)
    106	102
- CCCN1Cc2cccc(C(=O)Nc3ccccc3F)c2C1=O
    103	105
- O=C(Nc1cccc(C(=O)N2CCN(c3ccc(F)cc3)CC2)c1)c1nsc2ccccc12
    111	111
- CCN1Cc2cccc(C(=O)Nc3ccc(F)cc3)c2C1=O
    102	100
- COc1ccc2c(c1)cc(CNc1ccc(OC)c(OC)c1)c(=O)n2CC(=O)Nc1ccc(F)cc1
    107	105

Carrying on:
Every second line gives: Polio RdRp inh	Polio RdRp inh intensity
- O=C(CSc1ncc(-c2ccccc2)[nH]1)Nc1ccc(Cl)cc1
    103	97
- O=C(Cn1c(=O)n(Cc2nc(-c3ccccc3)no2)c(=O)c2ccccc21)Nc1cccc(C(F)(F)F)c1
    112	113
- O=c1cc(-c2ccc(F)cc2)nc(SCc2nc(-c3ccc(Cl)cc3)no2)[nH]1
    100	109
- CCOc1cccc(C(=O)N(Cc2ccc(C(C)C)cc2)C2CCS(=O)(=O)C2)c1 (stereo not given)
    100	103
- COCCCNC(=O)c1c(NC(=O)Cc2coc3cc(C)cc(C)c23)sc2c1CCCC2
    122	119
- COc1cc(OC)cc(C(=O)Nc2ccc3nc(N4CCC(C)CC4)cc(C)c3c2)c1
    100	105
- CCc1cccc(NC(=O)Cn2c(C(=O)OC)cc3occc32)c1
    106	113
- Nc1c(-c2nc(-c3ccccc3)no2)nnn1CC(=O)Nc1ccccc1
    103	108
- COc1ccc(OC)c(NC(=O)c2nc(SCc3ccc(F)cc3)ncc2Cl)c1
    106	109
- COc1ccc(NC(=O)Cn2cc(C(=O)c3ccccc3OC)c(=O)c3ccc(C)nc32)cc1OC
    111	110
- O=c1cc(COc2ccc(Cl)cc2Cl)nc2scc(-c3ccccc3)n12
    102	105
- O=C(CCn1c(=O)c2cccn2c2ccc(F)cc21)NCCc1ccccc1Cl
    113	110
- Cc1ccc2nc(-c3ccc(NC(=O)C(F)(F)F)cc3)sc2c1
    106	107
- Cc1ccc(-c2nn3c(=O)cc(CN4CCN(S(=O)(=O)c5ccc(Cl)cc5)CC4)nc3s2)cc1
    108	114
- Cc1cccc(OCC(=O)Nc2cccc(C(=O)OCc3cc(=O)n4c(C)csc4n3)c2)c1
    109	113
- COc1ccc(CCNC(=O)c2c(O)nc3ccccn3c2=O)cc1OC
    109	113
- O=C(Nc1ccc(Cl)cc1)c1ccc(-n2cnnc2)cc1
    107	110
- COc1ccc(Cl)cc1NC(=O)c1cc2nc(-c3ccc4c(c3)OCO4)cc(C(F)(F)F)n2n1
    109	109
- COc1ccc(-c2cc(C(F)(F)F)n3ncc(-c4ccccc4)c3n2)cc1
    107	109
- CCn1c(C(=O)N2CCC(C(=O)N3CCN(c4cc(C)ccc4C)CC3)CC2)cc2sccc21
    101	103
- CCOc1ccc(-c2nc3c(C#N)c[nH]n3c2NC2CCCCC2)cc1
    109	113
- O=C(CSc1nc2c([nH]c3ccccc32)c(=O)n1-c1ccccc1)Nc1ccc2c(c1)OCO2
    102	98
- Cc1cccc(CNC(=O)Cc2csc3ccccc23)c1
    104	106
- COc1cc(OC)c(NC(=O)NC(C)c2c(-n3cccc3)sc(C)c2C)cc1Cl (stereo not given)
    110	109
- COc1ccc(-c2cc(-c3ccccc3)c(C#N)c(SCC(O)CS(=O)(=O)Cc3ccccc3)n2)cc1 (stereo not given)
    108	110
- Cc1cc(C)cc(NC(=O)N2CCC3(CC2)Oc2ccccc2C(=O)N3Cc2ccccc2F)c1
    109	112
- CC1CCC(NC(=O)c2ccc(CS(=O)(=O)c3ccc(Cl)cc3)o2)CC1 (stereo not given)
    108	112
- N#Cc1ccc(NC(=O)COCc2cc(-c3ccco3)on2)cc1
    105	107
- OCc1cnc(SCc2ccc(F)cc2)n1Cc1ccc(F)cc1
    101	107
- Cc1ccc(C)c(NC(=O)N2CCC(N3CCN(Cc4ccc(F)cc4)C(=O)C3=O)CC2)c1
    106	96
- CCCCOc1ccc(CNC(=O)CCCN2C(=O)CSc3c2c(C)nn3-c2ccccc2)cc1
    104	106
- CCOc1ccc(-n2c(C)nc3c(cnn3-c3ccc(C)cc3)c2=O)cc1
    111	109
- CC(C)OCCCn1c(SCC(N)=O)nc2c(sc3ccccc32)c1=O
    105	110
- Cc1ccc(C)c(NS(=O)(=O)c2ccc3c(c2)CCCN3C(=O)C2CCC2)c1
    101	108
- Cc1cc(=O)[nH]c2nnc(SCC(=O)Nc3ccc(F)cc3F)n12
    112	108
- C=Cc1ccc(CN2C(=O)N(c3ccc(CC)cc3)S(=O)(=O)c3ccccc32)cc1
    105	98
- COc1ccc(N2CCN(C(=O)C3CCN(S(=O)(=O)c4cnc[nH]4)CC3)CC2)cc1
    102	106
- CCOc1ccccc1NS(=O)(=O)c1c(C(=O)OC)sc2cccc(F)c12
    101	107
- N#Cc1nc(/C=C/c2ccc(F)cc2)oc1N1CCCCC1
    107	98
- CCn1c(=O)n(CC2CCC(C(=O)NC(C)C)CC2)c(=O)c2sccc21 (stereo not given)
    108	108

Quoted from the listing:
Polio RdRp inh intensity with Cc1cc(=O)[nH]c2nnc(SCC(=O)Nc3ccc(F)cc3F)n12 is entered as 108
Polio RdRp inh with COc1ccc(N2CCN(C(=O)C3CCN(S(=O)(=O)c4cnc[nH]4)CC3)CC2)cc1 is entered as 102
Polio RdRp inh intensity with CCOc1ccccc1NS(=O)(=O)c1c(C(=O)OC)sc2cccc(F)c12 is entered as 107

The list goes on.
Every second line gives: Polio RdRp inh	Polio RdRp inh intensity
- CC(=O)c1ccc(NC(=O)CN2C(=O)CCc3ccccc32)cc1
    114	115
- COc1ccc(CCN2C(=O)c3oc4cc(C)cc(C)c4c(=O)c3C2c2ccccc2F)cc1OC (stereo not given)
    105	107
- Cc1c(Cl)cccc1NC(=O)Nc1nnc(N2CCCCCC2)s1
    108	110
- COc1ccc(CN2CCN(S(=O)(=O)c3ccc(NC(C)=O)cc3)CC2)c(OC)c1OC
    101	98
- Cc1c(C(=O)N2CCC(c3nc4ccccc4s3)CC2)oc2cc(Br)ccc12
    110	100
- CCC(C(=O)OC)n1nnc2sc(-c3ccccc3)cc2c1=O (stereo not given)
    119	125
- O=c1cc(-c2ccccc2)c2cc(Cl)c3c(c2o1)CN(Cc1ccccc1)CO3
    105	110
- CCOC(=O)c1c(C)oc2nc(C)nc(NCc3cccc(Cl)c3)c12
    106	112
- CC(=O)N1CCc2c(sc3c2c(=O)n(-c2ccccc2)c(=O)n3CC(=O)Nc2ccccc2)C1
    104	107
- Cc1nc2c(c(C)c1CCC(=O)N1CCN(c3ccccc3)CC1)c(=O)n(C)c(=O)n2C
    106	103
- Cc1c(C(=O)N2CCCC2)oc2c1-c1nn(CC(=O)NCc3ccccc3Br)cc1CC2
    111	111
- CCOC(=O)c1cc(-c2ccccc2)n(-c2cccc(C(=O)Nc3ccc(OCC)cc3)c2)c1C
    104	113
- Cc1cc(C)cc(NS(=O)(=O)c2ccc3[nH]cc(C(=O)N4CCCCCC4)c(=O)c3c2)c1
    107	107
- Cc1ccc2oc(C(=O)N(Cc3ccc(N(C)C)cc3)CC3CCCO3)c(C)c2c1 (stereo not given)
    111	109
- CCOc1ccc(NC(=O)CSc2nnc(CC)c(CC)n2)cc1
    106	104
- CCOC(=O)c1ccc(N2C(=O)c3n[nH]c(C)c3C2c2ccc(CC)cc2)cc1 (stereo not given)
    109	110
- COc1ccccc1CNc1nccn(-c2ccc(F)cc2)c1=O
    110	117
- Cc1ccc(-c2nc(S(=O)(=O)c3ccc(F)cc3)c(N3CCN(c4ccccc4)CC3)o2)cc1
    108	107
- COc1ccc(NC(=O)CSc2c(C(C)C)cnc3c2c(=O)n(C)c(=O)n3C)c(OC)c1
    106	108
- COc1ccc(OC)c(NC(=O)CSC2=Nc3ccccc3C3=NC(CC(=O)NCc4ccc5c(c4)OCO5)C(=O)N23)c1 (stereo not given)
    101	105
- CCOc1ccc(N(CC(=O)Nc2cc(OC)cc(OC)c2)S(=O)(=O)c2c(C)[nH]c(=O)[nH]c2=O)cc1
    102	104
- CCN(CC)CC(C)CNC(=O)c1cc(-c2ccc(Br)s2)nc2ccccc12 (stereo not given)
    102	106
- CCOc1ccccc1N1CC(c2nc3ccccc3n2CCCOc2ccccc2)CC1=O (stereo not given)
    113	116
- Cc1c(C(=O)Nc2cccc(C(F)(F)F)c2)oc2ccc(S(=O)(=O)N(C)C3CCCCC3)cc12
    114	99
